Bioassay records: PubChem, several laboratories
LANA-H2B inh: blockers of LANA interaction with H2A/H2B – biochemical, FP readout, HTS, primary screen | Protein LANA1 (Human herpesvirus 8 type P (isolate GK18)), Q9QR71 | cell-free LANA-H2A/H2B peptide, fluorescence polarization | inhibition, % (no concentration beside the values) | hit rate 0.6% among 320,000 | AID 2629, 2010; in the data active = inhibition mostly above about 10%, no sharp cut-off; inactive = mostly below about 6.7%;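 note: stock transfer was 7.5 nL into about 10 µL; 0% = median of vehicle wells and 100% = median of positive control wells; one replicate is shown; the record names a cut of 25% in any replicate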
T cruzi repl: inhibitors of intracellular T. cruzi growth, primary screen, luminescence, NIH3T3 host cells. T. cruzi beta-gal in NIH3T3, 90 h. hit rate 1.4% among 300,000. inhibition, % (concentration not given with the values);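 active = mean inhibition across valid replicates above about 55%, limit read from the data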;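 note: signal also drops with host cell toxicity which is not excluded here; 0% = plate median of DMSO wells and 100% = zero luminescence signal; higher percent means less beta-gal luminescence so fewer parasites; stock transfer was 50 nL into about 50 µL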
Calb FLC: C. albicans growth inhibition with fluconazole, primary screen, CaCi-2 strain, Alamar Blue fluorescence; growth inhibition, % (no concentration beside the values); AID 1979, 2009; C. albicans CaCi-2 (fluconazole-resistant clinical isolate) + fluconazole, 48 h; hit rate 0.57% among 300,000;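 active = most replicates above 75%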;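 note: all wells also contain fluconazole at 8 µg/ml as a sub-toxic cotreatment; 0% = median of DMSO wells and 100% = median of geldanamycin control wells; wells of about 8 µL received 7.5 nL stock; the first replicate is given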
Ecoli rRNA inh: reduced GFP signal of wild-type E. coli, primary screen, bacterial rRNA inhibitor project, GFP/RFP fluorescence, OD600, single point; E. coli WT GFP vs humanized-ribosome RFP mutants, 24 h; stronger effect = lower value; DMSO median 0, no signal -100; GFP signal change (wild-type ribosome), % (test concentration not listed); hit rate 1.6% among 350,000;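 active = significant combined selectivity score with lowered wild-type GFP, culture density cut under 30%, mutant RFP and density less affected; inactive = any of these conditions unmet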; note: one replicate is shown; some compounds called inactive have numbers as strong as hits
ALR inh: inhibitors of human ALR sulfhydryl oxidase, primary screen, biochemical, H2O2 detection, HRP-luminol luminescence, single point; purified ALR, DTT oxidation; inhibition, % (test concentration not listed); hit rate 3.8% among 290,000;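 active = mean and each replicate at 75% or more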;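 note: stock transfer was 7.5 nL into about 7.5 µL; 0% = neutral wells and 100% = wells with inactivated enzyme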
Target sequence (P55789 whole entry, looked up): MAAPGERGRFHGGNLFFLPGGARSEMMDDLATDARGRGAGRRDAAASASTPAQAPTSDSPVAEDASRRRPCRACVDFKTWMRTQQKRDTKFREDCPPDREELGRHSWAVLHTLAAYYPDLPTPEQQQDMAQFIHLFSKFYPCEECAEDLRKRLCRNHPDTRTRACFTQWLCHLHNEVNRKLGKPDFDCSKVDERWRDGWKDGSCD
Beta2AR agonist: beta2AR agonists driving receptor internalization, primary screen, cell-based, FAP fluorogen, flow cytometry. response, % (concentration not given with the values). hit rate 0.43% among 340,000. Am2.2-beta2AR cells; reference of the scale not given here. AID 504454, 2011;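 active = response above a set limit, near 3 SD of response in nonfluorescent compounds, cut at about 42% in these data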;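 note: stock transfer was 100 nL into about 11 µL; a reference agonist was the positive control; negative values mostly stem from fluorescent compounds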
Target sequence (P07550 whole entry, looked up): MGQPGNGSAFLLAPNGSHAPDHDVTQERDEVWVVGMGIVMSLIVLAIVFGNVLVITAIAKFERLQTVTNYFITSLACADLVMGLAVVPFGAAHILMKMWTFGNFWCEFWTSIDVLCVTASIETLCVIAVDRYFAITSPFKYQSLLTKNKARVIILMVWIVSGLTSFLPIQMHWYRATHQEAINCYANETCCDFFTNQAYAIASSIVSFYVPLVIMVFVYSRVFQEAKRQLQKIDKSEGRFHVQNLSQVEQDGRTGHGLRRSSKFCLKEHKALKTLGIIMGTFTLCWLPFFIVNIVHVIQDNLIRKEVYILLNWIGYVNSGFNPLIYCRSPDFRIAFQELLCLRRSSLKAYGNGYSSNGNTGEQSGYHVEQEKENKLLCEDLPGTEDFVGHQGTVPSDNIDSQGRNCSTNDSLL
Beta apoptosis: inhibitors of cytokine-induced beta cell apoptosis, primary screen, luminescence | INS-1E cytokine-induced death, ATP luminescence, 48 h; percent of positive-control rescue, neutral wells zero | protection from apoptosis, % (no concentration beside the values) | hit rate 0.8% among 300,000;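 active = all replicates at 75% or more, or half of them and the mean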;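 note: 0% = cytokine-treated negative control wells and 100% = positive control rescue; higher means more ATP so stronger rescue from cytokine killing; wells of about 40 µL received 100 nL stock; the first replicate is given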
Bfl-1 A1 inh: caspase 3/7 activation in MEF A1-2A-BIM cells, primary screen, A1 inhibitor project, cell-based, luminescence, HTS; Caspase-Glo 3/7 luminescence, 3 h; percent of clofoctol response, vehicle zero; AID 2462, 2010; hit rate 0.066% among 330,000; caspase activation, % (test concentration not listed);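 active = over half of replicate activation scores above 10%, or exactly half above 10 with the replicate mean above 10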;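 note: wells of about 30 µL received 50 nL stock; many hits fall short of the cut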
Ecoli rRNA inh OD600: further read-out of Ecoli rRNA inh, marked with its call; OD600 change, %; measured here: OD600 growth;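 optical density of the mix in the first replicate; 0 = DMSO median and -100 = no signal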
Ecoli rRNA inh RFP: also measured in Ecoli rRNA inh; calls as there; RFP signal change, %; measured here: RFP humanized mutant strains;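 first replicate; 0 = DMSO median and -100 = no signal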
The depositor's hits bear a star; . = no result given.

molecule	LANA-H2B inh	T cruzi repl	Calb FLC	Ecoli rRNA inh	Ecoli rRNA inh OD600	Ecoli rRNA inh RFP	ALR inh	Beta2AR agonist	Beta apoptosis	Bfl-1 A1 inh
COc1ccc(CCn2c(C)cc3c(c2=O)C(c2ccncc2)C(C#N)=C(N)O3)cc1OC (centres undefined)	5.2	1.0	-8.9	.	.	.	.	1.8	.	.
Cc1ccc(CC(=O)NCCCn2ccnc2)cc1	.	-11.4	1.3	10.9	7.8	-8.7	.	0.7	-4.4	-0.9
Cn1c(SCC(=O)Nc2ccccc2)nnc1-c1ccc2nonc2c1	-0.5	-2.2	0.5	24.4	7.3	2.9	.	-3.9	-6.4	1.1
COc1ccccc1-c1cc(C(=O)N2CCN(c3ccc(F)cc3)CC2)no1	-3.0	12.2	4.1	.	.	.	-1.9	0.6	-8.3	-0.2
O=C(c1ccco1)N1CCN(S(=O)(=O)c2ccc3[nH]c(=O)oc3c2)CC1	-2.7	-0.8	-5.6	24.4	11.2	3.0	.	-4.1	-6.8	0.0
COc1ccc(C(C(=O)NC2CCCCC2)N(C(=O)c2snc(C(N)=O)c2N)c2ccccc2OC)cc1 (centres undefined)	-3.6	17.1	45.8	14.6	19.9	-8.3	.	-18.4	-11.7	0.0
c1ccc(SCc2cn(C[C@H]3CC[C@@H]([C@@H]4CC[C@H](Cn5cc(CSc6ccccc6)nn5)O4)O3)nn2)cc1	-0.9	1.4	-0.3	-25.8	-33.8	8.4	-5.1	9.2	.	0.3
C=CCNC(=S)/N=c1/ccccn1CC	-5.4	-16.1	-8.1	-2.2	3.8	-3.1	7.3	8.0	-6.3	0.4
CN(CC(=O)Nc1ccc(Cl)c(C(F)(F)F)c1)C(=O)Cc1c[nH]c2ccccc12	6.9	3.2	.	-47.0	-75.7	-15.1	-11.1	10.2	1.0	-0.7
CCOc1ccc(Br)cc1S(=O)(=O)Nc1ccc(NC(=O)c2ccccc2F)cc1	-8.0	14.6	0.2	-25.9	-0.5	12.9	0.8	-2.7	6.8	0.5
CCCOc1ccc(-c2c(C(=O)N/N=C/c3cccnc3)nnn2-c2nonc2N)cc1	-0.3	-15.9	-3.9	4.6	11.5	-0.2	-4.5	-4.9	-0.4	0.1
Cc1ccccc1-n1c(SC2CCOC2=O)nnc1-c1ccncc1 (centres undefined)	1.4	-5.8	25.2	27.8	18.1	-0.2	-3.8	3.7	-0.4	0.0
Cc1cc(C)c(S(=O)(=O)Nc2ccc(C(=O)O)cc2)cc1S(=O)(=O)Nc1ccc(C(=O)O)cc1	2.7	-11.3	1.0	18.3	-5.4	-0.2	-9.9	-9.2	.	0.7
Cc1cc(C)c2nc(N3CCC(C(=O)N4CCN(C(=O)c5ccco5)CC4)CC3)sc2c1	-0.9	6.8	-5.7	.	.	.	3.5	-7.0	8.5	-0.6
CCCC(=O)OCC(=O)Nc1cc([N+](=O)[O-])ccc1OC	-0.9	9.5	-11.3	2.4	3.7	0.7	-5.3	1.4	-7.2	0.4
COc1ccc(CC(=O)OCC(=O)Nc2ncc(Cl)cc2Cl)cc1OC	-2.6	-13.1	4.7	.	.	.	-0.9	-1.6	-5.3	1.1
O=C1c2ccccc2S(=O)(=O)N1Cc1nc2ccccc2s1	6.7	-17.4	-5.0	.	.	.	-3.0	-6.8	-3.2	-0.2
O=C(N/N=C/c1ccccc1O)c1ccc2c(c1)OCO2	4.7	-0.2	13.6	7.7	7.1	-0.7	-8.4	-4.3	95.4*	-6.4
CCCN(C(=O)c1cc(-c2ccco2)nc2ccccc12)c1c(N)n(Cc2ccccc2)c(=O)[nH]c1=O	-8.1	-5.0	-3.4	1.2	-2.9	1.1	-5.6	13.3	.	1.0
CCOC(=O)C(Cc1ccccc1)C(=O)Nc1cccc2ccccc12 (centres undefined)	-4.0	1.3	-24.2	.	.	.	.	-1.6	-7.0	2.0
COc1ccc(-c2cc3c(=O)n(CC(=O)N4CCCC4)ncn3n2)cc1	-0.9	-7.0	-1.9	4.2	13.0	-1.0	-11.2	1.9	1.1	-1.1
Cc1ccc(-n2nc3c(c2NC(=O)c2ccc4c(c2)OCO4)CSC3)cc1	4.6	10.0	-4.2	.	.	.	-1.0	7.7	3.7	0.8
O=C(COC(=O)C1CCN(c2ccc(C(F)(F)F)cn2)CC1)NC1CCCCC1	-11.1	-7.0	0.3	-14.9	-22.0	1.1	-0.5	4.1	-2.6	0.3
CCCN1CCc2c(sc(NC(=O)CCS(=O)(=O)c3ccccc3)c2C(N)=O)C1	-10.2	10.3	5.0	9.4	12.7	0.9	5.6	8.2	-19.7	0.2
COC(=O)c1c(NC(=O)/C=C/C(=O)O)sc(C)c1-c1ccc(C(C)C)cc1	-0.9	8.7	15.1	-50.0	-65.9	-8.7	33.3	9.9	21.7	-0.4
CC(=O)C1[C@H](N(C)C)CC2C3CC=C4CC(O)CC[C@]4(C)C3CC[C@@]21C (some centres undefined)	7.6	-13.2	-3.1	-0.1	7.1	4.5	0.3	-2.8	-0.8	-0.3
C=C(C)C1CC=C(C)/C(=N/NC(=O)c2ccc(NC(=O)CC)cc2)C1 (centres undefined)	-3.2	11.4	-12.5	-1.6	8.5	-3.8	-0.1	0.5	1.1	-0.2
C/C(=N\NC(=O)COc1ccccc1[N+](=O)[O-])c1cccc(NC(=O)c2ccncc2)c1	0.8	21.8	10.9	7.1	-3.9	0.9	-7.7	15.6	.	0.9
CC(C)n1nc(C(=O)OCC(=O)N2CC(=O)Nc3ccccc32)c2ccccc2c1=O	1.3	-17.1	-9.5	-12.8	-24.8	-1.7	-0.5	-9.6	-2.6	1.0
COc1ccc(S(=O)(=O)CC(=O)c2cc(C)c(O)c(C)c2)cc1	0.6	-3.2	-2.5	-9.3	-4.1	0.8	.	-2.0	-1.1	0.0

molecule	LANA-H2B inh	T cruzi repl	Calb FLC	Ecoli rRNA inh	Ecoli rRNA inh OD600	Ecoli rRNA inh RFP	ALR inh	Beta2AR agonist	Beta apoptosis	Bfl-1 A1 inh
O=C(NC1CCCCC1)C1CCCN(S(=O)(=O)c2cccs2)C1 (centres undefined)	1.4	1.9	-3.4	.	.	.	0.9	3.0	-1.1	-0.1
O=C(CCC(=O)Nc1ccc(F)cc1)N/N=C/c1ccccc1	6.4	-12.1	5.3	18.0	18.4	0.3	-0.2	-10.4	-5.1	-0.6
Cc1ccc(Nc2nc(N)nc(CCl)n2)cc1	-11.0	3.1	-1.8	-0.8	10.2	1.5	6.7	8.7	-4.4	0.8
Cc1[nH]c2ccccc2c1C(=O)C(C)OC(=O)c1ccccc1NCCO (centres undefined)	-10.5	9.4	3.9	2.2	-13.4	6.9	-1.7	-0.3	0.3	0.5
COc1ccccc1Nc1nc(N)nc(CN2CCC(Cc3ccccc3)CC2)n1	-3.8	13.5	0.2	.	.	.	-15.1	1.4	.	0.2
CC(=O)c1ccc(N2CC(C)(C)C2=O)cc1	-3.9	-8.0	9.8	18.7	7.7	-1.5	-2.4	0.7	.	1.2
CN1CCN(C(=O)Nc2ccccc2CC[N+](=O)[O-])CC1	0.3	-17.5	2.0	11.9	9.0	3.6	.	-6.1	-6.0	0.0
O=C(COC(=O)/C=C/c1cccc(F)c1)NC1CC1	-3.7	.	.	12.6	12.6	1.9	4.3	2.1	-4.7	-0.2
COc1ccc(/C=c2\sc3nc(-c4ccccc4)c(-c4ccccc4)n3c2=O)cc1OC	1.3	-4.5	-4.5	.	.	.	43.9	7.7	-4.8	0.7
COc1cccc(NC(=O)COC(=O)CNS(=O)(=O)c2c(F)cccc2F)c1	2.7	-12.0	1.1	5.3	-0.8	5.8	-7.7	7.7	0.0	-0.2
COc1ccc(CN(C)S(=O)(=O)c2nnc(NC(=O)c3ccccc3OC)s2)cc1OC	0.8	0.9	1.9	-0.9	-0.2	-1.5	-0.9	14.7	-0.5	-0.7
Cc1ccc(C)c(OCC(=O)Nc2c(C)n(C)n(-c3ccccc3)c2=O)c1	-3.8	.	.	18.8	11.9	2.8	.	-0.4	-1.7	0.1
CC(=O)c1c(C)[nH]c(C(=O)OCC(=O)c2ccc3c(c2)NC(=O)CO3)c1C	0.1	.	.	-6.1	7.3	-4.6	.	2.5	-4.5	-0.1
CCOc1ccc(S(=O)(=O)N2CCCCC2)cc1NS(=O)(=O)c1cccs1	-2.6	.	.	-10.1	-16.2	5.3	-1.0	-1.6	-5.6	0.2
CCc1ccc(C(=O)c2cc3ccc(O)cc3oc2=O)cc1	-1.5	16.2	-3.7	-11.7	-19.8	0.0	.	-2.2	2.2	-3.1
CCCCC(=O)Nc1ccc(C(=O)N(CC)c2ccccc2C)cc1	0.8	3.6	44.8	-4.8	2.2	3.2	-10.1	62.7*	1.7	0.8
COc1ccc(N2CCN(C(=O)CN3C(=O)NC(C)(C4CC4)C3=O)CC2)cc1 (centres undefined)	-1.4	.	.	-2.7	1.5	-7.1	.	3.6	-1.1	-0.3

Pulled by structure from the list above, 2 records:
molecule	LANA-H2B inh	T cruzi repl	Calb FLC	Ecoli rRNA inh	Ecoli rRNA inh OD600	Ecoli rRNA inh RFP	ALR inh	Beta2AR agonist	Beta apoptosis	Bfl-1 A1 inh
Cc1ccc(-n2nc3c(c2NC(=O)c2ccc4c(c2)OCO4)CSC3)cc1	4.6	10.0	-4.2	.	.	.	-1.0	7.7	3.7	0.8
CCCC(=O)OCC(=O)Nc1cc([N+](=O)[O-])ccc1OC	-0.9	9.5	-11.3	2.4	3.7	0.7	-5.3	1.4	-7.2	0.4

A portion of the library; rates above refer to the full screens.
